# KCNQ2 inh: KCNQ2 channel blockers in CHO-K1 cells – cell-based, FluxOR thallium flux, B-score, primary screen (AID 2156); O88943; 20 min; hits give low values; only compounds with negative scores are shown here; some inactives read as strong as hits; B-score at 10 µM; hit rate 1.1% among 310,000;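 active = fluorescence ratio B-score at most minus 3 library SDs, with starting brightness B-score within 2 library SDs, cut at about -5.5 in these data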
# Target sequence (O88943 whole entry, looked up): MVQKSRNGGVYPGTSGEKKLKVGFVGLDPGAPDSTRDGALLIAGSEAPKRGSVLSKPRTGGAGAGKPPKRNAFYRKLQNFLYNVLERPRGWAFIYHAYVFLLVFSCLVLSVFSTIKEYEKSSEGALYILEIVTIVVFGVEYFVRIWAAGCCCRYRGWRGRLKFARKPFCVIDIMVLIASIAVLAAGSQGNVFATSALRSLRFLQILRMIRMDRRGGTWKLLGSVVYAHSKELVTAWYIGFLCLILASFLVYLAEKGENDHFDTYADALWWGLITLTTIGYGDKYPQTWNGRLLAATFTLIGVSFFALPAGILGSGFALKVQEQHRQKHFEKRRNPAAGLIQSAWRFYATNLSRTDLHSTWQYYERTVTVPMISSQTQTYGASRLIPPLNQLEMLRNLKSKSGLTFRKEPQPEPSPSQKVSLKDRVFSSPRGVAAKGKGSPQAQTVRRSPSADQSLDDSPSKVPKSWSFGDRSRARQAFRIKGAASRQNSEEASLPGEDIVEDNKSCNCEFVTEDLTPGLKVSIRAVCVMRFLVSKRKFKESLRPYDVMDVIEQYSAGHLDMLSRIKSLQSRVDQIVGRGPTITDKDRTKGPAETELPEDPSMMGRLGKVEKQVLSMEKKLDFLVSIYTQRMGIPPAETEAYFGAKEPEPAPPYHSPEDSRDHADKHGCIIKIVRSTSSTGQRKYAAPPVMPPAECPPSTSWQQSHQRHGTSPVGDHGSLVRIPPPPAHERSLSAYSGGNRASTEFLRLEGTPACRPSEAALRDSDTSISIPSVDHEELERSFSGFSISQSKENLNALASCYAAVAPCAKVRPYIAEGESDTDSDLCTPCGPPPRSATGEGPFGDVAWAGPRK
# KCNQ2 inh baseline: further read-out of KCNQ2 inh, marked with its call; B-score; measured here: initial fluorescence intensity artifact check;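 brightness before thallium and not channel activity; 0 = typical well and far values either way flag optical interference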
# Active calls of the source: *; i = inactive. An excerpt. The share of hits here may be higher or lower than overall.
KCNQ2 inh | KCNQ2 inh baseline | smiles
i | 1.6 | Cc1nc2ccc(C(=O)N(C)CC3CCCN(CCc4ccc(Cl)cc4)C3)cc2[nH]1 (configuration not stated)
i | 0.01 | O=C(c1ccccc1-c1ccccc1)N1CCN(c2ccccn2)CC1
i | 1.7 | O=C(NCc1ccccc1)C(c1ccccc1)N(C(=O)c1csnn1)C1CC1 (configuration not stated)
i | -0.98 | O=C(CSc1nnc(NC(=O)c2ccc(F)cc2)s1)NCc1ccco1
i | -0.39 | O=C(CN1C2CCCC1CC(NC(=O)C1CCCCC1)C2)Nc1ccccc1C(F)(F)F (configuration not stated)
i | -0.36 | COc1ccc(N(C(=O)c2ccco2)C(C(=O)NC2CCCC2)c2ccccc2)cc1 (configuration not stated)
i | -0.01 | Cc1ccccc1N1Cc2ccccc2C1
i | 0.92 | O=C1CSC(c2ccccc2)N1c1ccc([N+](=O)[O-])cc1 (configuration not stated)
i | -3.9 | O=C(Nc1ccccc1N1CCOCC1)C1CCN(S(=O)(=O)c2cccc(C(F)(F)F)c2)CC1
i | 0.95 | COCCNC(=S)N1CCN(c2cccc(C)c2C)CC1
i | 0.11 | COc1ccc(-n2ncc3c2CC(C)(C)CC3NC(=O)c2ccnn2C)cc1 (configuration not stated)
i | 1.4 | CCN1CCc2c(sc(NC(=O)c3cc4ccccc4cc3OC)c2C(N)=O)C1
i | 2.4 | Cc1cccc(NC(=O)C(=O)NCCCN2CCOCC2)c1
i | -0.95 | Cc1cc(=O)oc2cc(O)c(N=Nc3ccccc3)cc12
i | -0.01 | CCOC(=O)c1c(C)[nH]c(C)c1S(=O)(=O)N1CCN(c2ccc([N+](=O)[O-])cc2)CC1
i | -1.1 | O=C1C2C3C=CC(CC3)C2C(=O)N1c1ccccc1 (configuration not stated)
i | 0.23 | O=C(Cn1nnc(-c2ccccc2F)n1)NCc1ccco1
i | 0.73 | CC(=O)N(Cc1ccc(F)cc1)Cc1nc2ccccc2c(=O)[nH]1
i | 2.8 | CCCCn1nc2cc(C(=O)NCc3ccco3)ccc2c1OCC
i | 0.12 | CC1(C)Cc2c(sc3c2c(=N)n(Cc2ccco2)c(=O)n3CC(=O)Nc2cccc(Cl)c2)CO1
i | -0.11 | CCC(C)Cn1c(C(C)C)nc2ccccc21 (configuration not stated)
i | 0.81 | Cc1ccc(-c2nnc(SCC(=O)N/N=C/c3ccccc3C(=O)O)n2C2CCCCC2)cc1
i | -0.61 | O=C(CN1CC(=O)Oc2ccccc21)OCC(=O)c1ccc(F)cc1
i | 1.1 | C=CCn1c(SCC(=O)Nc2ccccc2)nnc1-c1cccc(S(=O)(=O)N2CCOCC2)c1
i | 1.7 | COc1ccc(Br)cc1S(=O)(=O)n1ccnc1C
i | -0.08 | O=[N+]([O-])c1cccc(-n2nncc2-c2ccccc2)c1
i | -0.21 | O=C(NCc1ccncc1)Nc1cccc([N+](=O)[O-])c1
i | 2.5 | Cc1cccc(CSc2ncnc3nc[nH]c23)c1
i | 0.65 | O=C(Nc1ccccc1Oc1cccnc1)C1CCCN(C/C=C/c2ccccc2)C1 (configuration not stated)
i | 1.4 | O=C(CCN1C(=O)[C@@H]2Cc3ccccc3CN2C1=O)NCc1ccc(Cl)cc1
i | -0.28 | CC1Cc2ccccc2N1C(=O)CSc1ncc(-c2ccc(F)cc2)n1C (configuration not stated)
i | -1.2 | CC1(C(=O)O)CCC(C(=O)NC2CCCCCC2)C1(C)C (configuration not stated)
i | 0.82 | Cc1cc(C(=O)C(C)OC(=O)c2cnccn2)c(C)n1-c1ccccc1 (configuration not stated)
i | 0.93 | O=C1CN=C(Nc2ccccc2Cl)N1Cc1ccc2c(c1)OCO2
i | -0.01 | NC1=NC(=O)/C(=C/c2c(OS(=O)(=O)c3ccc(Cl)cc3)ccc3ccccc23)S1
i | -1.2 | COc1ccccc1Nc1nc(-c2ccccc2)nc2ccccc12
i | -1.3 | CC(=O)c1cccc(NC(=O)C(C)N2CCc3ccccc3C2)c1 (configuration not stated)
i | 0.19 | CCn1nnnc1NCc1c(OC)ccc2ccccc12
i | -0.53 | COc1cccc(-n2c(SCC(=O)N3CCc4ccccc43)nnc2-c2c[nH]c3ccccc23)c1
i | 0.01 | CC(C)OC(=O)CCCN1C(=O)c2ccc(N)cc2C1=O
i | 1.2 | CCC(C)(C)NC(=O)C(c1ccc(O)cc1)N(C(=O)Cn1nnc2ccccc21)c1ccc(NC(C)=O)cc1 (configuration not stated)
i | -0.01 | CC(=O)N1CCc2cc(S(=O)(=O)NC(CC(C)C)C(=O)Nc3cc(C(=O)O)ccc3C)ccc21 (configuration not stated)
i | -0.04 | COC(=O)CSc1nnc(-c2ccccn2)n1N
i | 0.06 | FC(F)(F)c1cc(CCN2C(=S)NC[C@@H]2CC2CCCCC2)cc(C(F)(F)F)c1
i | 0.1 | COC(=O)c1ccc(NC(=S)NC2CCCCC2)cc1
i | 0.07 | Cc1ccccc1CCN1CCCC(CN(C)CC(C)(C)C)C1 (configuration not stated)
i | 0.67 | NS(=O)(=O)c1ccc(CCNC(=O)c2cccc(OC(F)F)c2)cc1
i | 1.5 | CCN(CC)c1ccc(NC(=O)Cn2c(C(C)NC(=O)c3ccc(C)cc3)nc3ccccc32)cc1 (configuration not stated)
i | 1.5 | O=C(c1ccco1)N1CCN(S(=O)(=O)c2ccc(C3CCCCC3)cc2)CC1
i | 2 | CCN1CCN(C(=O)/C=C\C(=O)O)CC1

# Next structures follow.
KCNQ2 inh | KCNQ2 inh baseline | smiles
i | -1.7 | CCOC(=O)Cn1nc(-c2ccccc2)c2cnc3ccc(CC)cc3c21
i | 0.61 | COc1ccc(C2/C=C\CN(C(=O)c3ccccc3)CC(=O)N2Cc2ccc(F)cc2)cc1 (configuration not stated)
i | 1.2 | COc1cccc2[nH]c(C(=O)NCCCN3CCCC3=O)cc12
i | 0.69 | Cc1ccc(/C(O)=C/c2nc3ccccc3oc2=O)cc1
i | 29 | Cc1[nH]c2ccccc2c1/C=C/c1cc[n+](C)cc1
i | -0.12 | Cn1c(=Nc2ccc(N3CCOCC3)cc2)ccc2ccccc21
i | 0.77 | O=C(NCCCn1ccnc1)c1nc(Cn2cc(Br)cn2)no1
i | -1.6 | Cc1cccc(CSc2nc3c(c(=O)[nH]2)CCC3)c1
i | -1.1 | Cc1cc2nnc(SCC(=O)OC(C)C)n2c2ccccc12
i | 1.4 | COC(=O)C1=NNC(C(=O)c2ccco2)C1c1ccccc1 (configuration not stated)
i | 0.03 | c1ccc(CSc2cc3ccccc3[nH]2)cc1
i | -1.4 | COc1ccc(Cl)cc1NC(=O)CN(C)C(C)C(=O)NC(=O)NC1CCCCC1 (configuration not stated)
i | 0.34 | Cc1oc(-c2cccc(Cl)c2)nc1CN1CCC(C(=O)NCc2ccco2)CC1
i | 1.6 | Nc1ccc(-c2cc(-c3ccc(N)cc3)nc(-c3ccccc3)n2)cc1
i | 0.16 | COc1ccccc1OCCN1CSC(=S)N(C)C1
i | 0.21 | Cc1cc(=O)oc2c(C(=O)c3ccccc3)c(OCC(N)=O)ccc12
i | 3.9 | O=C(NNC(=O)C1CCCN(S(=O)(=O)c2ccc3ccccc3c2)C1)C1CC1 (configuration not stated)
i | 0.19 | O=C(/C=C/c1ccccc1)NC1CCCc2ccccc21 (configuration not stated)
i | 1.2 | CCOC(=O)CC(=O)CSc1nc2sc(C)cc2c(=O)n1Cc1ccco1
i | -0.19 | COc1cc2c(cc1OC)CN(CC(=O)Nc1cccc(C)c1)CC2
i | 1.7 | c1ccc(C[n+]2cccc3c4ccccc4ccc32)cc1
i | -0.16 | Cc1ccc(C)c(C(=O)COC(=O)Cn2c(C)csc2=O)c1
i | 0.35 | CC1CCCCN1CCCNC(=O)CN1C(=O)c2cccnc2Oc2ccc(Cl)cc21 (configuration not stated)
i | -0.42 | O=C(COc1ccccc1Cl)NC(=O)NC1CCCCC1
i | 1.8 | COc1ccc(NC2c3ccccc3C(=O)N2c2ccccn2)cc1 (configuration not stated)
i | 0.96 | CCCCn1c(C)cc(C)c(S(=O)(=O)c2ccccc2C)c1=O
i | 0.04 | O=C(CCC1CCN(Cc2ccccc2O)CC1)NC1CC1
i | 0.04 | COc1ccc(CC2S/C(=N/N=C/c3ccc(O)cc3)NC2=O)cc1 (configuration not stated)
i | -0.08 | CCOC(CNC(=O)C(=O)Nc1cc2c3c(c1)CC(=O)N3CCC2)OCC
i | -0.67 | O=C(CS(=O)(=O)c1cn(CC(=O)N2CCCC2)c2ccccc12)Nc1ccccc1F
i | 0.46 | COc1ccccc1CNC(=O)CN(c1ccc(C)cc1)S(=O)(=O)c1c(C)nn(C)c1C
i | 2.5 | Cc1ccc(S(=O)(=O)NNC(=O)c2snnc2C)cc1
i | -0.63 | CCOc1cc(C)c(C(C)C)cc1S(=O)(=O)N1CCN(C)CC1
i | -1.2 | CC(C)CCN(C(=O)C1CSC2(C)CCC(=O)N12)c1c(N)n(Cc2ccccc2)c(=O)[nH]c1=O (configuration not stated)
i | 1.1 | O=C(Nc1ccc(S(=O)(=O)NC2=NCCCCC2)cc1)c1ccc([N+](=O)[O-])s1
i | -2.4 | COc1ccc(OC)c(Nc2nc(-c3ccc(O)c(O)c3)cs2)c1
i | -1.1 | Cc1ccnc(NS(=O)(=O)c2ccc(NC(=O)c3ccc(Br)o3)cc2)n1
i | 1.7 | CC(=O)c1cccc(NC(=O)CN2C(=O)COc3ccc(Cl)cc32)c1
i | 0.14 | CCC(C(=O)NCc1ccco1)n1nc(-c2ccc(OC)cc2)ccc1=O (configuration not stated)
i | 3.9 | Fc1ccc(-n2c(Cc3cccs3)n[nH]c2=S)cc1Cl
i | 0.82 | COc1c(C=O)c(CCN(C)C(=O)c2ccc(F)cc2)cc2c1OCO2
i | -1 | Cc1ccc(S(=O)(=O)N2CCOCC2)cc1C(=O)NC1CCCCC1
i | 0.43 | CCCCCCCNC(=O)C1(CC2CC(c3ccc(Cl)cc3)=NO2)CCN(C(=O)C2(C)CC2)CC1 (configuration not stated)
i | 1.1 | O=C(CSc1nnnn1C1CCCCC1)Nc1ccc2c(c1)OCO2
i | 3.1 | CCOc1ccc(C2/C(=C(/O)c3ccc(OC)cc3)C(=O)C(=O)N2c2cc(C)on2)cc1OC (configuration not stated)
i | 0.26 | CC(C)CCNC(=O)CCC(=O)NNc1nc2ccccc2c2nc(-c3ccccc3)nn12
i | 1.8 | Clc1ccc(OCc2nnc(SCc3nc4ccccc4[nH]3)n2Cc2ccco2)cc1
i | 0.69 | C/C(=N\NC(=O)c1ccccc1)c1nc2ccccc2n1C
i | -2.8 | O=C(Nc1cc(C(F)(F)F)ccc1N1CCCC1)C1=COCCO1
i | 0.11 | C1CSC2(N1)C1CC3CC(C1)CC2C3 (configuration not stated)

# Remaining list, next part:
KCNQ2 inh | KCNQ2 inh baseline | smiles
i | -1.9 | O=C(CN1C(=O)CSc2ccccc21)N/N=C/c1ccco1
i | 2.2 | CCCOC(=O)C1=C(C)N(C)C(=O)NC1c1cc2c(cc1[N+](=O)[O-])OCO2 (configuration not stated)
i | 0.42 | CC(C)Cc1cc(CNC(=O)C2CCC(=O)N(Cc3cccc(C(F)(F)F)c3)C2)on1 (configuration not stated)
i | 1.4 | CCc1noc(C)c1C(=O)Nc1nnc(C2CCCCC2)s1
i | 0.55 | Cc1ccc(C)c(N2CCN(C(=O)c3cc4sccc4n3C)CC2)c1
i | -4.3 | COc1cccc(C2=NN(C(=O)c3ccccc3)C(O)(C(F)(F)F)C2)c1 (configuration not stated)
i | -1.6 | Brc1ccccc1C1CC(c2ccccc2)=Nc2ccccc2N1 (configuration not stated)
i | 1.4 | O=C(CN1CCC(N2CCCCC2)CC1)N1CCCc2ccccc21
i | -1.6 | O=S(=O)(Nc1ccc(S(=O)(=O)Nc2nccs2)cc1)c1ccc2c(c1)OCCO2
i | -1.5 | Oc1ccc(CCNc2ncnc3ccc(Cl)cc23)cc1
i | 0.29 | COc1ccc2c(c1)O[C@@H](c1cccc(C(F)(F)F)c1)[C@H](OC(=O)N[C@H]1CCCc3ccccc31)C2=O
i | 0.46 | CCn1cc(C(=O)NCc2ccco2)c(=O)c2cc(F)c(N3CCN(C(=O)c4ccco4)CC3)cc21
i | 0.07 | COC(=O)c1sc(NC(=O)CSc2nc3cccnc3n2C2CCCCC2)nc1C
i | 1.6 | O=C(NC1CC2CCCC(C1)N2C(=O)Nc1ccc(F)cc1)c1ccccc1 (configuration not stated)
i | 0.75 | COc1cccc(CN2CC(C(=O)N(C)Cc3[nH]c4ccccc4c3C)CCC2=O)c1 (configuration not stated)

# Compound activity deposited in PubChem by Johns Hopkins Ion Channel Center.
